Screening results as filed in PubChem BioAssay.
VDR inh = inhibitors of human vitamin D receptor. 400,000 compounds, 0.93% hits. VDR-SRC2-3 peptide fluorescence polarization, 2 h. P11473. Potency, µM, for inactives: max response, negative = inhibition, hits mostly inhibitors; active = well fitted inhibition curve with a large enough effect; inconclusive = small, poorly fitted or top-dose-only effect, or another doubt; inactive = no such curve, though single readings can be large or run the other way; note: series mostly up to about 120 µM
Target sequence (P11473 whole entry, looked up): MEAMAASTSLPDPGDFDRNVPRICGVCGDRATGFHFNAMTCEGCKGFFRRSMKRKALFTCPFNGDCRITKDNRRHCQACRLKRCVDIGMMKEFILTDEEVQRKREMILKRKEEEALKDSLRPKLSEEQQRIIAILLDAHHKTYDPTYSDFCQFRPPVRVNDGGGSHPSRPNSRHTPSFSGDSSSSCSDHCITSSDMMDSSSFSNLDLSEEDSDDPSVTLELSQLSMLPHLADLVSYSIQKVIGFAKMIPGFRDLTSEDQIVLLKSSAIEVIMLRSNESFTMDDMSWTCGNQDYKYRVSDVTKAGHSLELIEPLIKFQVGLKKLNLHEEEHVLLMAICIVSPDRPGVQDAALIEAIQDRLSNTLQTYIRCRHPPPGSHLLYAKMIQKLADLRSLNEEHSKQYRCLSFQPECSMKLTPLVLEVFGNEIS
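FP read-out; VDR + SRC2-3 coactivator peptide; 23 nl compound by pintool; 2 h RT incubation; reagents held at 4 deg C, protected from light.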
Numbers without * were called inactive; ? = inconclusive; & = joins results of further samples; [ ] = remark or other dose. % is set by controls: 0 for no effect and ±100 for the full control effect; potency is the fitted concentration of half-maximal effect. Some of the compounds tested; count on the stated rates, not on these rows.

VDR inh | SMILES
-0.4% | Cc1ccc(-c2nn3c(C)nnc3s2)cc1NC(=O)c1ccc(-c2ccc(Cl)cc2Cl)o1
-2.4% | O=C(Nc1ccc2cn[nH]c2c1)c1ccc(S(=O)(=O)N2CCOCC2)cc1
-26.5% | CCOC(=O)C(=CNc1ccc(-c2ccco2)c(Cl)c1)C(=O)OCC
1.4% | O=C(NCC1CCCO1)c1cc(-c2ccc(Cl)cc2Cl)on1 (stereo not given)
3.6% | CCOC(=O)C1=c2s/c(=C\c3ccncc3)c(=O)n2C(N)=C(C(=O)OC)C1c1ccncc1 (stereo not given)
? | CC(=O)OCCN(C)c1cc(SC(C)C)c2nonc2c1[N+](=O)[O-]
-7.2% | CCCCN(C(=O)c1cc(S(=O)(=O)N2CCOCC2)ccc1F)c1c(N)n(CCCC)c(=O)[nH]c1=O
-7.7% | COc1ccccc1C/C(N)=N/OC(=O)c1cccc([N+](=O)[O-])c1
-17.2% | Cc1ccc2cc(CN(C(=O)c3ccco3)c3ccccc3)c(=O)[nH]c2c1
7.6% | Cc1ccc(NC(=O)CN2C(=O)CC(c3ccco3)Sc3ccccc32)cc1Cl (stereo not given)
-10.4% | Cc1cc(C)c(NC(=O)C(C)OC(=O)c2cc(Br)c(Br)s2)c(C)c1 (stereo not given)
-5.6% | O=C(Cn1c(=O)oc2cc(S(=O)(=O)NCc3ccccc3)ccc21)Nc1cccc(F)c1
6.4% | Clc1ccc(-c2cc(-c3ccccc3)on2)cc1
9.4% | Cc1cc(C)cc(OC(=O)COc2ccccc2C)c1
-4.8% | CC(C)(C)NC(=O)C(c1ccncc1)N(C(=O)Cn1nnc(-c2ccc(F)cc2)n1)c1ccccc1F (stereo not given)
-20.1% | CCn1cc(/C=C/C(=O)Nc2ccn(Cc3c(F)c(F)c(F)c(F)c3F)n2)cn1
-4.6% | COc1cc(NC(=O)c2ccc(F)cc2)c(OC)cc1NC(=O)CN1CCCCC1
2.7% | O=C(CN1C(=O)NC2(CCc3ccccc32)C1=O)c1ccc(F)c(F)c1 (stereo not given)
9.6% | O=C(CN1C(=O)CCn2nc(-c3ccccc3)cc21)NCc1ccc(Cl)cc1
0.2% | CN1CCN(Cc2c(O)c(Cl)cc3c(-c4ccccc4)cc(=O)oc23)CC1
-19.6% | COc1ccc(NC2=Nc3cccc4cccc2c34)cc1
1.6% | Cc1ccc(C)c(N(CC(=O)N(C)C)S(C)(=O)=O)c1
3.2% | CC(Sc1nnc(-c2ccncc2)n1C)C(=O)Nc1ccc(N2CCOCC2)cc1 (stereo not given)
6.5% | CCS(=O)(=O)N1CC(=O)N(c2ccccc2C)C(C)(C(=O)NC2CCCCC2)C1 (stereo not given)
-0.4% | CC(C)(C)c1ccc(OCCC(=O)Nc2cccc(S(=O)(=O)N3CCCC3)c2)cc1
-9.1% | CC1CC(Nc2ccccc2)c2ccccc2N1C(=O)c1ccccc1F (stereo not given)
-14.1% | Cc1nc(-c2ccccc2)sc1-c1ccn[nH]1
-5.4% | CCCN(CC(=O)Nc1ccccc1OC)C(=O)Cc1ccccc1F
-23.8% | COc1ccc(CNCCC2(C(C)C)CCOC(C)(C)C2)cc1 (stereo not given)
6.4% | COc1cccc(CNC(=O)c2oc3c(c2C)-c2nn(Cc4cccc(Cl)c4)cc2CC3)c1
6.3% | Cc1ccc2ncnc(Nc3cccc([N+](=O)[O-])c3)c2c1
-2.8% | COCCN1C(=O)N[C@H](c2cccc(C(F)(F)F)c2)C(C(=O)OC)=C1C
30.2%[activator] | COCCN(Cc1nnc(-c2cccs2)o1)C(=O)CN1C(=O)NC2(CCCCC2)C1=O
-4.5% | COc1cccc(C(=O)NCC(=O)N2CCN(c3ccc(C(F)(F)F)cn3)CC2)c1
-8.0% | CC(/C=C1\N=C(SCc2ccccc2)SC1=O)=C\c1ccccc1
79.4µM* | Cc1ccc(/C=C2/C(=O)N(c3ccccc3)C(=S)N2C)o1
1.0% | CCOc1ccc(/C=N/NC(=O)CN2CCCCCCC2)cc1
-17.7% | Cc1ccccc1CS(=O)(=O)CCC(=O)NCCCN1CCOCC1
-18.3% | Cc1cccc(-c2noc(-c3ccc4c(c3)OCO4)n2)c1
21.0% | O=C(CCCN1C(=O)/C(=C/c2cccs2)SC1=S)NNC(=O)c1ccc(F)cc1
-14.7% | O=C1NC[C@@H](Cc2ccc(O)cc2)N(CC2CCCCC2)C1=O
-13.9% | Cc1ccc(CNC(=O)c2ccc(CNc3c(N4CCCC4)c(=O)c3=O)cc2)cc1
? | Cc1cccc(N2C(=O)/C(=C\c3ccc(C(=O)O)cc3)c3ccccc3C2=O)c1
-6.7% | Cc1cccc(C(=O)N2CCc3cc(-c4csc(NC(=O)CN5CCCC5)n4)ccc32)c1
17.6% | COC1=NC(=C(c2ccccc2)c2ccccc2)OC1=O

Five entries from above, reformatted.
compound	VDR inh
COc1cccc(C(=O)NCC(=O)N2CCN(c3ccc(C(F)(F)F)cn3)CC2)c1	-4.5%
CC(/C=C1\N=C(SCc2ccccc2)SC1=O)=C\c1ccccc1	-8.0%
Cc1ccc(/C=C2/C(=O)N(c3ccccc3)C(=S)N2C)o1	79.4µM*
CCOc1ccc(/C=N/NC(=O)CN2CCCCCCC2)cc1	1.0%
Cc1ccccc1CS(=O)(=O)CCC(=O)NCCCN1CCOCC1	-17.7%

The listing continues.
VDR inh | SMILES
-0.8% | CCCC(c1nnnn1C(C)(C)C)N1CCN(C(=O)c2ccco2)CC1 (stereo not given)
-19.8% | Cc1cccc(NC(=O)Nc2cccc(C#N)c2)n1
-20.1% | COc1ccc(-c2csc(N(Cc3ccccc3)C(=O)COc3ccc(Cl)cc3)n2)cc1
-18.0% | Cc1cccc(CC2(O)C(=O)Nc3ccccc32)n1 (stereo not given)
4.4% | CC(C)CC(NC(=O)C1CCCN1C(=O)OC(C)(C)C)C(=O)NCC(N)=O (stereo not given)
? | CC(=O)N1CCN(c2ccccc2NC(=O)COc2cc(C)cc(C)c2)CC1
10.7% | COC1=C(Nc2ccccc2)C(=O)C(OC)=C(Nc2ccccc2)C1=O
14.2% | CN1CCN(/C=C2\SC(=S)NC2=O)CC1
-5.7% | Fc1cccc2sc(N3CCCC3)nc12
0.7% | CN(C)S(=O)(=O)c1ccc(Cl)c(C(=O)Nc2nc3ccccc3[nH]2)c1
-4.9% | COc1ccc(Nc2c(-c3ccc(OC)cc3)nc3cnccn23)cc1
-1.0% | CC1CCN(Cc2c(O)ccc3c(=O)c(-c4cccc(Cl)c4)c(C(F)(F)F)oc23)CC1
4.0% | Cn1nc(C(=O)NCCCN2CCCCC2)c2c1-c1ccccc1S(=O)(=O)C2
5.1% | Cc1ccc(OCc2cc(C(=O)NCc3ccc(OC(F)(F)F)cc3)no2)cn1
-8.5%&-13.9% | CCCN1CNc2c(c(=O)[nH]c(=S)n2CCc2ccc(OC)c(OC)c2)C1
-11.4% | CSc1nc2sc3c(c2c(=O)n1-c1ccc(C)cc1)CCCC3
0.6% | CCn1c(=S)sc2c(=O)n(CC(=O)Nc3ccc(C(C)=O)cc3)c(C)nc21
11.5% | O=C(NCCCNC(=O)c1cnccn1)c1cccc(F)c1
-13.1% | CCOC(=O)Cc1csc(NC(=O)CN(C)S(=O)(=O)c2cccc3cccnc23)n1
-6.4% | CC1(C)Cc2nc(-c3ccccc3)nc(SCC(=O)N3CCOCC3)c2CO1
-13.5% | C#CCOCCOCCOCCNc1nc(N2CCN(C(=O)[C@H]([C@@H](C)CC)n3cc([C@@H](N)CC(C)C)nn3)CC2)nc(N2CCN(C(=O)[C@H](CCCCN)n3cc([C@@H](N)C(C)CC)nn3)CC2)n1 (stereo not given in full)
-16.3% | CCOC(=O)C1(Cc2ccccc2C(F)(F)F)CCN(Cc2ccon2)CC1
4.9% | COc1cccc(C2Nc3ccccc3C(=O)N2O)c1O (stereo not given)
-16.4% | O=C(NCc1cccs1)c1noc2c1CCCCC2
-2.2% | OCCC1CN(Cc2ccon2)CCN1CCc1ccccc1 (stereo not given)
-10.2% | O=C(Nc1cc(Cl)ccc1Cl)c1noc2c1CCCC2
-2.1% | O=C(CN1CCOCC1)Nc1ccc(Br)cn1
-6.0% | OC(COCc1ccco1)CN1CCN(C(c2ccccc2)c2ccccc2)CC1 (stereo not given)
-7.4% | COc1ccccc1N1CCN(C2CCCN(C(=O)c3cccc(-c4ccco4)c3)C2)CC1 (stereo not given)
-19.6% | COc1ccc(NC2CCCN(C(=O)c3ccc(OC)o3)C2)cc1 (stereo not given)

Reprinted at random: 2 compounds from above.
VDR inh | SMILES
-16.3% | CCOC(=O)C1(Cc2ccccc2C(F)(F)F)CCN(Cc2ccon2)CC1
-16.4% | O=C(NCc1cccs1)c1noc2c1CCCCC2

Additional entries follow.
VDR inh | SMILES
3.5%&15.0% | COc1cccc2c1[C@@H]1CN(CCCCn3c(=O)[nH]c4c(sc5ncc(-c6ccccc6)nc54)c3=O)C[C@@H]1CO2
10.3% | Cc1cccc(-n2ncc3c(NNC(=O)c4ccccc4Cl)ncnc32)c1
-1.8% | CSc1nc2ccc3nc(NC(=O)C4COc5ccccc5O4)sc3c2s1 (stereo not given)
7.9% | CCc1ccc(C(=O)Cn2cnc3cc([N+](=O)[O-])ccc3c2=O)cc1
3.9% | CSc1nsc(N/N=C/c2ccccc2)c1C#N
2.7% | COc1ccc(Cl)cc1NC(=O)c1cc(=O)c2cc(C)cc(C)c2o1
15.7% | CC(NC(=O)COC(=O)c1ccc(Br)o1)c1ccccc1 (stereo not given)
-18.5% | Cc1ccc(-c2cc(N)on2)cc1
1.0% | Nc1ccc(SCc2nc3cccc4c3n2CCC4)cc1
4.0% | Cc1ccnc(SCC(=O)NC2CCCCCC2)n1
-5.1% | Cc1cccc(NC(c2cccc(Cl)c2)c2ccc3cccnc3c2O)n1 (stereo not given)
? | N#C/C(=C\c1ccc(OCc2cccc(C(=O)O)c2)cc1)C(=O)NCc1ccco1
-7.0% | CNc1[nH]c(=O)[nH]c(=O)c1N=Nc1cc(Cl)ccc1Cl
-2.3% | COc1ccc(Cl)c2sc(N(Cc3cccnc3)C(C)=O)nc12
-12.3% | CCOC(=O)c1cnc2c(c(C)nn2C)c1Oc1cc(Cl)cc(Cl)c1
-6.6% | CSCCC(NC(=O)c1ccc(Cl)cc1Cl)C(=O)NNC(=O)c1ccncc1 (stereo not given)
-16.9% | COc1ccccc1C1N(c2cc(Cl)ccc2OC)C(=O)C2CCCN21 (stereo not given)
-4.3% | COc1ccccc1-c1c(C)nn2c(N3CCC(C)CC3)cc(C)nc12
-6.0% | CCOC(=O)N1CCN(c2c(NCc3ccccn3)c(=O)c2=O)CC1
-5.8% | c1ccc(-n2nnnc2SCc2cn3cccnc3n2)cc1
5.1% | COc1ccccc1CN(Cc1ccco1)c1cnc(S(C)(=O)=O)nc1C(=O)Nc1cc(C)ccc1C
19.3% | CCOC(=O)c1ccc(NC(=O)CCNc2c(N3CCCC3)c(=O)c2=O)cc1
-11.7% | Cn1c(=O)c2c(ncn2CC(=O)N2CCCc3ccccc32)n(C)c1=O
14.3% | CCOc1ccc(S(=O)(=O)N2CCC(C(=O)NCCc3ccc(OC)c(OC)c3)CC2)cc1
-12.6% | O=C1c2nccnc2C(=O)N1c1ccc(C(F)(F)F)cc1
-6.0% | CCOc1ccc2nc(COC(=O)c3cccc([N+](=O)[O-])c3)c(C(C)=O)[n+]([O-])c2c1
-2.8% | CCSc1nc(-c2ccccc2)c(C#N)c(=O)[nH]1
3.3% | COc1ccc(S(=O)(=O)NCC(=O)O)cc1C(=O)NC1CCCCC1
-2.4%&1.1% | COc1ccc2[nH]cc(CCNC(=O)Nc3ccccc3)c2c1
5.7% | Cc1ccc(CN(Cc2ccco2)C(=O)c2ccc(Cl)cc2Cl)cc1

At a glance, 2 of the compounds above.
VDR inh | SMILES
-6.0% | CCOC(=O)N1CCN(c2c(NCc3ccccn3)c(=O)c2=O)CC1
-5.8% | c1ccc(-n2nnnc2SCc2cn3cccnc3n2)cc1

(next part)
VDR inh | SMILES
-30.0% | C=CCSc1nc2c(c(=O)[nH]c(=O)n2C)n1C(C)C
-9.4% | CCOC(=O)Cn1nc(-c2ccc(F)cc2)cc(Cc2ccccc2)c1=O
14.8% | O=S(=O)(c1cnc(Cl)c(Cl)c1)N1CCN(c2ncccn2)CC1
-5.6% | Cc1ccc([N+](=O)[O-])cc1S(=O)(=O)N1CCCCC1C(=O)O (stereo not given)
28.2µM* | COc1ccc(C2CC(=O)N3CN(Cc4ccco4)CSC3=C2C#N)cc1 (stereo not given)
-15.4% | COc1ccc(C2CC(=O)N(Cc3ccc(F)cc3)c3ccccc3S2)cc1OC (stereo not given)
4.9%&-6.2% | Cc1cccc(CSc2ncccc2C(=O)O)c1
-3.4% | Cc1cc(C)c2cc(CN(Cc3nnnn3C3CCCCC3)CC3CCCO3)c(=O)[nH]c2c1 (stereo not given)
-10.7% | COc1ccc(S(=O)(=O)Nc2ccccc2)cc1OC
-12.9% | O=S(=O)(NC1CCSc2ccccc21)c1ccc(Cl)nc1 (stereo not given)
14.7% | Cc1ccc(C(=O)N/C(=C/C=C/c2ccccc2)C(=O)NCc2ccco2)cc1
14.9% | O=C(CSc1ccc2nnc(-c3ccccn3)n2n1)Nc1ccc(F)cc1
13.4% | Cc1ccc(C(=O)OCC(=O)c2c[nH]c3ccccc23)cc1S(=O)(=O)N1CCOCC1
-11.2% | CC[C@]12c3[nH]c4cc(-c5ccco5)ccc4c3CCN1C(=O)[C@@H](CC(=O)NCc1ccc(OC)c(OC)c1)C[C@@H]2C(=O)N1CCN(C(=O)c2ccco2)CC1
6.9% | Cn1cnnc1SCCNS(=O)(=O)c1ccccc1
6.8% | Cc1cc(C(=O)NCc2ccccc2)no1
-5.7% | O=C(C[n+]1ccc(-c2nnc3n2CCC3)cc1)c1ccc(Cl)cc1
-14.1% | COC(=O)c1cc(OC)nc(OC)c1
